NPYLR7 agonist: agonists of mosquito NPYLR7 receptor, primary screen, cell-based, Aedes aegypti, calcium fluorescence, mosquito biting behavior. activation, % at 10 µM. Aedes aegypti neuropeptide Y-like receptor 7 (NPYLR7). 0.15% of 270,000 active. HEK293T NPYLR7/Galpha15, GCaMP6s calcium fluorescence; in the data active = activation above about 40%;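 note: 0% = vehicle and 100% = reference agonist at the receptor; some compounds past the cut are filed as inactive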
NPYLR7 agonist max-min: also measured in NPYLR7 agonist; calls as there; activation, %; measured here: Max-Min RFU normalised activation; some inactives read as strong as hits;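 span of the calcium signal over five minutes; 0% = vehicle and 100% = native peptide agonist; compound fluorescence can raise it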
Numbers without * were called inactive; & = joins results of further samples.

mol	NPYLR7 agonist	NPYLR7 agonist max-min
CN(Cc1cccc(Cl)c1)C(=O)CCc1c[nH]c2ccccc12	5	6
COc1ccc(C2CC(=O)C3C(=Nc4onc(C)c4C3c3cccs3)C2)cc1 (stereo not drawn)	-2	-6
Cc1ccccc1S(=O)(=O)NC(=O)C1(C)CCN1C(=O)C1(c2ccc(Cl)cc2)CCC1 (stereo not drawn)	-4	-6
CCOCCCN(CC(=O)N(Cc1ccccc1)Cc1cccn1Cc1ccc(F)cc1)C(=O)COc1ccc(Cl)cc1	21	26
CC(c1nccs1)N(C)C(=O)CCc1nnc(-c2ccc(-c3ccccc3)cc2)o1 (stereo not drawn)	2	0
COc1cc(C=C2SC(=O)N(CCNC(=O)c3ccc4c(c3)CCCC4)C2=O)cc(OC)c1OC	-4	-7
Cc1ccc(C2(O)CCN(C(=O)Cn3nc(C)cc3N)CC2)nc1	9	4
CSc1ccccc1NC(=O)C(C)N1CCC(c2ccc(O)cc2)CC1 (stereo not drawn)	6	3
O=C(C1CC1)N1CCN(c2ccc(-c3ccccn3)nn2)CC1	0	24
COc1ccc(N2C(=O)c3cccc4cccc(c34)C2=O)cc1	-5	-8

(listing goes on)
mol	NPYLR7 agonist	NPYLR7 agonist max-min
CS(=O)(=O)NC1CCN(c2nccc(CCC(F)(F)F)n2)CC1	0	23
CCCCS(=O)(=O)N(C)C(=O)c1cscc1C	4	4
CCN(c1ccccc1)S(=O)(=O)c1ccc(NC(=O)c2cccc(N3CCCC3=O)c2)cc1	-2	-3
Cc1cccc(-c2nnc(NC(=O)C(C)NC(=O)c3ccc([N+](=O)[O-])cc3Cl)s2)c1 (stereo not drawn)	8	-6
CCN(CCn1cccn1)C(=O)C1COc2ccccc2O1 (stereo not drawn)	-5	-7
CC(C)(C)c1nc(CN2CCC(O)(CO)CC2)no1	18	5
O=C(NCc1ccc(-c2ncc(-c3ccc(F)cc3)[nH]2)cc1)c1cccc(Cl)c1Cl	1	12
C=CC(=O)Nc1cccc(-c2cccc(-c3cccc(OC)c3)n2)c1	30	38
c1ccc(Cc2nc(CCn3nnc(-c4ccccc4)n3)n[nH]2)cc1	10	9
Cc1noc(C)c1C(C)C(=O)NCC1(O)CCC(C(C)(C)C)CC1 (stereo not drawn)	-1	-7

(more compounds)
mol	NPYLR7 agonist	NPYLR7 agonist max-min
NC(=O)c1cnc2n1CCN(C(=O)c1ccccc1N1CCOCC1)C2	8	5
CCCCCCC(=O)Nc1c(-c2ccc(C(F)(F)F)cc2)nc2ccccn12	-4	-2
CCOC(=O)c1nn(-c2cc(C(=O)OC)cc(C(=O)OC)c2)cc1O	0	-2
CCCn1c(N)c(N(CCOC)C(=O)CC2CC3CCC2C3)c(=O)[nH]c1=O (stereo not drawn)	8	6
CCCCC(CC)CNC(=O)c1cncn1-c1cccc(-c2cccc3c2sc2ccccc23)c1 (stereo not drawn)	10	9
Cc1cc(C(=O)NCc2cccnc2N2CCc3ccccc3C2)no1	15	0
Cc1ccc(C(=O)N(C)Cc2nnnn2C)cc1C	4	0
Cc1ccc(S(=O)(=O)Cc2nc(-c3ccc(C(=O)NCc4cccnc4)cc3)oc2C)cc1	-6	-8
CCS[C@H]1CCN(C(C)=O)[C@@H]1C(=O)OC	7	-1
COC(=O)CSc1nnc2n1CCN2c1ccccc1	17	16

New compounds follow.
mol	NPYLR7 agonist	NPYLR7 agonist max-min
COCc1ccc(C(=O)Nc2ccc(-c3nc(CNC(=O)C4CCCCCN4C)c(C)o3)cc2)o1 (stereo not drawn)	-2	-4
CS(=O)(=O)N1C[C@H]2CNC[C@@]2(C(=O)N2CCc3ccccc3C2)C1	0	-1
CC1SC(c2ccccc2F)N(CC(=O)NCCN(C)C)C1=O (stereo not drawn)	25	26
O=C(CCSc1ccccc1Br)NC1CCN(C(=O)C2CC2)CC1	1	0
Nc1ncn([C@H]2C[C@H](O)[C@@H](CO)O2)c(=O)n1	-7	-18
CC(=O)N[C@@H]1C[C@H](Cc2ccccc2)O[C@H](c2cc(C(C)(C)C)n[nH]2)C1	9	5
COc1ccc(NC(=O)CNC(=O)CN(Cc2ccc(F)cc2)C(=O)c2ccccc2OC)cc1	1	-3
COc1ccc(Oc2ccc([N+](=O)[O-])cc2C(=O)N2CCC3(CC2)OCCO3)cc1	-10	-15
Cn1c(=O)c2c(SCCO)nc(-c3ccc(Cl)cc3)nc2n(C)c1=O	-4	-4
Cc1ccc(Cl)c(OCC(=O)NC2CCc3ccccc32)c1 (stereo not drawn)	0	-1

Following part
mol	NPYLR7 agonist	NPYLR7 agonist max-min
CCc1nc2c(sc3nc(N4CCOCC4)c4c(c32)CC(C)(C)OC4)c(=O)o1	6	3
CCOC(=O)c1c(NC(=O)c2ccc(Cl)nc2)sc2c1CCCC2	12	5
CN(C(=O)c1ccsc1)C(Cc1ccccc1)C1CCN(C(=O)/C=C/c2ccccc2)CC1 (stereo not drawn)	9	2
CC(C)COc1ccc(CC(=O)Nc2ccccc2O)cc1	-1	-2
COCCN1C(=O)c2cnc(C)nc2C1C (stereo not drawn)	2	-5
O=C(c1ccccc1Oc1ccccc1)N1CCC(O)(C(=O)O)CC1	-3	-3
O=C(c1ccc2c(c1)OCO2)N1[C@@H](c2ccccc2)[C@@H](CO)C[C@]12CCCCNC2=O	1	5
CCOC(=O)c1[nH]c(C)c(CC(C)C)c1C	-2	1
Cc1ccc(C(=O)N2CCCC(N3CCC(C)CC3)C2)cc1 (stereo not drawn)	1	8
CC1=CC(=NNC(=S)Nc2cc(C)ccc2C)CC1	1	-2

Continued.
mol	NPYLR7 agonist	NPYLR7 agonist max-min
C=CCn1c(SCC(=O)c2ccccc2)nc2sc(C)c(C)c2c1=O	-6	-11
CCCCNC(=O)Cn1cnc2c1c(=O)n(C)c(=O)n2C	16	14
CCC(C)N(Cc1c(-c2ccc(F)cc2)noc1N1CCN(C)CC1)C(=O)c1ccc(F)cc1 (stereo not drawn)	4	4
CC(Oc1ccc(Cl)cc1Br)C(=O)NNC(=O)c1ccco1 (stereo not drawn)	17	6
Cc1nsc(NC(=O)N[C@@H]2CCCC[C@H]2c2ccccc2)n1	1	1
COCCN(CC(=O)N(Cc1cccn1Cc1ccc(Br)cc1)C1CCCCC1)C(=O)c1cccc(Cl)c1	-6	-5
CCCn1c(=NC(=O)C2=COCCO2)sc2c(C)ccc(OC)c21	-1	-1
CCC(=O)CC(Nc1ccc(I)cc1)c1ccccc1 (stereo not drawn)	9	5
Cc1nc(C(F)(F)F)ccc1C(=O)N1CCC1(C)C(=O)NS(C)(=O)=O (stereo not drawn)	-1	0
O=c1c(C(F)(F)F)cccn1CCn1cnc2ccsc2c1=O	0	-2

Later entries.
mol	NPYLR7 agonist	NPYLR7 agonist max-min
CC1CN(C(=O)CCCSc2nnc(Cc3ccccc3)n2-c2ccccc2)CCN1C(=O)c1ccc(Cl)c([N+](=O)[O-])c1 (stereo not drawn)	1	4
Cc1noc(C)c1CC(=O)NCc1cccc(C(F)(F)F)c1	-1	-5
Cc1cc(-c2csc(NC(=O)c3cc(=O)[nH]c4ccccc34)n2)c(C)n1C	2	0
CCCCN(C=O)c1c(CC)nc2ccc(C(=O)NCCCN3CCCC3=O)cn12	10	2
CC(=O)CC(c1ccc([N+](=O)[O-])cc1)c1c(O)c2ccccc2oc1=O (stereo not drawn)	-6&1	-3&1
O=C(c1cccc(F)c1)N(Cc1cccc(C(F)(F)F)c1)CC1CC(c2ccc(F)cc2F)=NO1 (stereo not drawn)	0	6
CN(Cc1nc(-c2cccs2)no1)Cc1n[nH]c2c1CCCCC2	0	-7
O=C(CNC(=O)c1ccco1)Nc1ccc(OC(F)(F)F)cc1	11	6
Cc1cc(Nc2ccccc2)nc(N2CCN(C(=O)C(C)C)CC2)n1	4	1
CCOC(=O)C/C(C)=N\Nc1nc2c(c(=O)n(C)c(=O)n2C)n1CCCc1ccccc1	1	4

Remaining list, next part.
mol	NPYLR7 agonist	NPYLR7 agonist max-min
O=c1ccc(S(=O)(=O)N2CCCC2)cn1Cc1nc(-c2cccc(Cl)c2)no1	9	0
FC(F)(F)c1cnc(NNC(=S)NCc2ccc3c(c2)OCO3)c(Cl)c1	-4	-8
O=C(c1csc(CSc2nnc(-c3ccncc3)n2-c2ccccc2)n1)N1CCN(Cc2ccccc2)CC1	-3	-1
COc1ccc(-c2nn(-c3ccccc3C)cc2CNCc2ccc(C)o2)cc1F	6	8
CCNC(=S)Nc1ccc(NC(=S)NCC)cc1	-1	0
CNC(=O)c1cc(-c2ccn[nH]2)ccc1Cl	4	3
COC(=O)Cn1c(=O)c2c(nc3n2CCN3c2ccc(C)c(Cl)c2)n(C)c1=O	0	0
CCc1c(C(=O)NC2CC2)c(C)nn1C	-2	-1
COc1cccc(C2C(C(=O)OCc3ccccc3)=C(C)NC3=C2C(=O)CCC3)c1 (stereo not drawn)	-4	-10
Cc1nc(C2CCNCC2)cc(N2CCC(C(=O)NCc3ccccn3)CC2)n1	4	-6

Additional results
mol	NPYLR7 agonist	NPYLR7 agonist max-min
O=C(Nc1cccnc1-n1cccn1)c1ccc(C2SCCS2)cc1	5	4
CCn1c(CSc2nnc(N)s2)nc2c(F)cccc21	5	1
CCc1cc(C2CCCN2C(=O)NC(C)CC)on1 (stereo not drawn)	-1	-5
CCCc1cc(N(C)CCc2cn[nH]c2)nc(C)n1	1	2
NS(=O)(=O)c1ccc(CN2C(=O)c3ccccc3NC2C=C(c2ccccc2)c2ccccc2)cc1 (stereo not drawn)	-2	-5
CC1CC1C(=O)NNc1nnc(-c2ccccc2)n1-c1ccccc1 (stereo not drawn)	-7&4	-8&1
CCOc1ccc(C(=O)NCCNc2ccc(Nc3cccnc3)nn2)cc1	0	-2
Cc1nc(NC(=O)Cc2cc(F)cc3c2OCOC3)sc1C	2	1
CN(C)S(=O)(=O)N1CCC2(CCCN(CC3CCCCC3)C2=O)C1 (stereo not drawn)	13	8
CN(Cc1ccco1)C(=O)CN1CC2=C(C1=O)C(c1ccccc1Cl)NC(=O)N2C (stereo not drawn)	2	6

Next part
mol	NPYLR7 agonist	NPYLR7 agonist max-min
CCOC(=O)c1nc(COC(=O)c2ccccc2F)cs1	-3	-4
CCSc1nc2n(n1)C(c1cccs1)C1C(=O)CCCC1=N2 (stereo not drawn)	8	7
CN1CCCCC1CCC(=O)N1CC(n2cccn2)C1 (stereo not drawn)	0	-7
COc1ccc2c(=O)cc(C(F)(F)C(F)F)oc2c1	8	2
CCc1cnc2c(c1NCCO)c(=O)n(C)c(=O)n2C	-4	-3
CN1C(=O)N(CCc2ccccc2)C(=O)C12CCN(Cc1cccs1)CC2	8	-1
C=C[n+]1ccn(C2=C(NS(=O)(=O)c3ccc([N+](=O)[O-])cc3)C(=O)c3ccccc3C2=O)c1	4	2
C=C(Br)Cn1c(C(F)(F)F)nc2ccccc21	3	1
Cc1cc(-c2ccc(/C=C3\SC(=S)N(CC(=O)O)C3=O)o2)ccc1[N+](=O)[O-]	-12	-22
O=C(Nc1ccccc1[N+](=O)[O-])C1CCCN(c2ccc(-c3ccccc3)nn2)C1 (stereo not drawn)	-11	-18

Grouped by structure, the entries above with a nitro group on carbon
mol	NPYLR7 agonist	NPYLR7 agonist max-min
Cc1cccc(-c2nnc(NC(=O)C(C)NC(=O)c3ccc([N+](=O)[O-])cc3Cl)s2)c1 (stereo not drawn)	8	-6
COc1ccc(Oc2ccc([N+](=O)[O-])cc2C(=O)N2CCC3(CC2)OCCO3)cc1	-10	-15
CC1CN(C(=O)CCCSc2nnc(Cc3ccccc3)n2-c2ccccc2)CCN1C(=O)c1ccc(Cl)c([N+](=O)[O-])c1 (stereo not drawn)	1	4
CC(=O)CC(c1ccc([N+](=O)[O-])cc1)c1c(O)c2ccccc2oc1=O (stereo not drawn)	-6&1	-3&1
C=C[n+]1ccn(C2=C(NS(=O)(=O)c3ccc([N+](=O)[O-])cc3)C(=O)c3ccccc3C2=O)c1	4	2
Cc1cc(-c2ccc(/C=C3\SC(=S)N(CC(=O)O)C3=O)o2)ccc1[N+](=O)[O-]	-12	-22
O=C(Nc1ccccc1[N+](=O)[O-])C1CCCN(c2ccc(-c3ccccc3)nn2)C1 (stereo not drawn)	-11	-18

The listing continues.
mol	NPYLR7 agonist	NPYLR7 agonist max-min
Cc1ccsc1C(=O)N1CCC1(C)C(=O)NCc1cccnc1 (stereo not drawn)	8	6
Cc1nc2scc(C)n2c(=O)c1NC(=O)Cc1ccc(Br)cc1	10	0
CC(=O)Nc1cccc(C(=O)NC(C)c2cnn(-c3ccccn3)c2C)c1 (stereo not drawn)	3	-1
Cc1c(C)n2c3c(=O)n(C)c(=O)n(C)c3nc2n1-c1cccc(O)c1	-7	-8
CC(C)=CC(=O)NCc1cccnc1Oc1ccc(F)c(F)c1	3	1
COCCNC(=O)[C@H]1C[C@@H](O)[C@H](O)[C@@H]2N=C(Nc3ccccc3)S[C@@H]21	-6	-15
Cc1ccc(-c2nc(=S)n(CN(C3CC3)C(C)C(C)C)[nH]2)cc1 (stereo not drawn)	-4	-5
Cc1nc(N2CCCCC2CCNS(C)(=O)=O)c2cnn(C)c2n1 (stereo not drawn)	-11	-11
CC(=O)CSc1nc(SCC(C)=O)c2cnc(N3CCOCC3)nc2n1	5	-1
COc1ccc(-c2nc3cc(C)ccn3c2NC(=O)CC(C)CC(C)(C)C)cc1OC (stereo not drawn)	-3	3

More entries follow.
mol	NPYLR7 agonist	NPYLR7 agonist max-min
O=C(NCCn1nc(-c2ccccc2)ccc1=O)Nc1cccc(C(F)(F)F)c1	0	-1
O=S(=O)(/C=C/c1ccccc1)NC1CCCCC1	0	-2
COCCN(CCC(=O)OC)C(=O)c1cc(=O)[nH]c2ccccc12	14	9
CCCN1C(=O)c2ccc(C(=O)N(CC)C3CCOC(C)(C)C3)cc2C1=O (stereo not drawn)	3	2
CN(C)c1ccc(C(F)(F)F)cc1NCc1ccsc1	-1	-2
Cc1c(Cl)cccc1S(=O)(=O)N1CCN(C(c2ccccc2)c2ccc(Br)cc2)CC1 (stereo not drawn)	4	-1

High-throughput results from PubChem.

An excerpt. The share of hits here may be higher or lower than overall.
